PINK1 expr mod – PINK1 expression modulation | Potency, µM (highest dose often 76.6 µM), for inactives: top-dose activation (PINK1 increase), usual class: activators | AID 624263 | actives 0.2% (n = 410,000) | PINK1 immunofluorescence, high-content cytometry, 24 h; active = well fitted activation curve with a large enough effect; inconclusive = small, poorly fitted or top-dose-only effect; inactive = flat fitted curve, though single readings scatter; cell line not stated here;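 also: potency is read from the fitted curve at half-maximal effect; % of control where 0% means no effect; nearly all actives have a fitted effect of over 65% in size; a mitochondrial uncoupler was the plate control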
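Compound titrations (5 concentrations, 24 h) on a stable cell line; DMSO and CCCP controls. Endpoint: fixed-cell PINK1 immunofluorescence with mitochondrial, cell and nuclear markers, scanned by microplate cytometer.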
D2 ag – human D2 receptor agonism in beta-arrestin assay. P14416. DiscoveRx PathHunter D2 beta-arrestin, luminescence, 90 min; 100% = 57 uM dopamine signal. activation, % (no concentration beside the values). actives 0.084% (n = 360,000). AID 624465; in the data active = activation above about 40%; inconclusive = about 15% to 40%; inactive = below about 15%; also: compound concentration not given in the record; the text of the record calls up to 30% inactive
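DiscoveRx PathHunter D2 beta-arrestin cells (2,100/well) attached overnight, then compound-stimulated 90 min at 37 C in HBSS/10 mM HEPES/0.1% Tween-20 buffer; beta-galactosidase complementation read by luminescence after 1 h at ambient temperature. Dopamine 57 uM final (EC100) as control.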
TRPV1 potentiator – potentiators of human vanilloid receptor 1 (TRPV1). Q8NER1. actives 0.02% (n = 320,000). potentiation, % at 8.33 µM. TRPV1-expressing cells, Fluo-8 calcium influx, capsaicin EC20 potentiation; host cell line not named in the record; control for the full effect not named in the record; active means potentiation above 80%; inconclusive means 30% to 80%; inactive means below 30%; also: 0% is about no effect
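Fluo-8 calcium influx in TRPV1-expressing cells, kinetic read (ex 480/em 520 nm). Compound added and read 3 min for agonist activity, followed by capsaicin at EC20 final and 2 min further read for enhancement.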
CtBP-E1A blk – inhibitors of CtBP/E1A interaction | activity change, % (no concentration beside the values) | AID 651724 | AlphaScreen GST-E1A/His-CtBP binding, 1536-well; stronger effect = lower value; control for the full effect not named in the record | actives 0.49% (n = 340,000); in the data active means activity change below about -65%; inconclusive means about -30% to -65%; inactive means above about -30%; also: % is scaled to controls: 0 for no effect and ±100 for the full control effect; compound concentration not given in the record
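Homogeneous bead-based format: GST-tagged E1A captured on glutathione donor beads, His-tagged CtBP on nickel acceptor beads; compounds precede bead addition by 2 h at 37 °C.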
D2 PAM – human D2 receptor positive allosteric modulation; DiscoveRx D2 beta-arrestin cells, luminescence, 90 min; 100% = 57 uM dopamine signal; potentiation, % (concentration not given with the values); actives 0.23% (n = 360,000); AID 624464; active = potentiation of 50% or more; inconclusive = 30% to 50%; inactive = 30% or less;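 also: compound concentration not given in the record; tested on top of an EC20 dose of dopamine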
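D2 cells co-treated with compound plus 50 nM dopamine (EC20) for 90 min at 37 deg C to detect potentiation. Beta-arrestin recruitment was read as enzyme-fragment luminescence after 1 h at ambient temperature. Full response was set by 57 uM dopamine.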
Sfp PPTase inh – inhibitors of Bacillus subtilis Sfp phosphopantetheinyl transferase; Biochemical Sfp PPTase activity, qHTS; Q9F4F7; AID 1490; Potency, µM, for inactives: max response, negative = inhibition, actives largely listed as inhibitors; actives 3.5% (n = 310,000); active = well fitted inhibition curve with a large enough effect; inconclusive = small, poorly fitted or top-dose-only effect, or another doubt; inactive = no such curve, though single readings can be large or run the other way;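 also: the enzyme is Sfp with the accession as filed and its product quenches rhodamine fluorescence; potency is read from the fitted curve at half-maximal effect; 0% = enzyme reaction without inhibitor and -100% = no enzyme wells; top concentration of the series not given in the record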
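Buffer: 50 mM Hepes-Na pH 7.6, 10 mM MgCl2, 0.01% Nonidet P-40, 0.01% BSA. Enzyme 15 nM, pre-exposed to compound 15 min; substrates then added and fluorescence change tracked over 30 min.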
Six1-Eya2 inh – blocks human Six1 binding to Eya2. actives 0.56% (n = 360,000). AID 651725. activity change, % (test concentration not listed). Q15475+O00167. AlphaScreen GST-Six1/His-Eya2 binding, biochemical; stronger effect = lower value; control for the full effect not named in the record; in the data active = activity change below about -65%; inconclusive = about -30% to -65%; inactive = above about -30%; also: % is scaled to controls: 0 for no effect and ±100 for the full control effect; compound concentration not given in the record
Target sequence (O00167 whole entry, looked up): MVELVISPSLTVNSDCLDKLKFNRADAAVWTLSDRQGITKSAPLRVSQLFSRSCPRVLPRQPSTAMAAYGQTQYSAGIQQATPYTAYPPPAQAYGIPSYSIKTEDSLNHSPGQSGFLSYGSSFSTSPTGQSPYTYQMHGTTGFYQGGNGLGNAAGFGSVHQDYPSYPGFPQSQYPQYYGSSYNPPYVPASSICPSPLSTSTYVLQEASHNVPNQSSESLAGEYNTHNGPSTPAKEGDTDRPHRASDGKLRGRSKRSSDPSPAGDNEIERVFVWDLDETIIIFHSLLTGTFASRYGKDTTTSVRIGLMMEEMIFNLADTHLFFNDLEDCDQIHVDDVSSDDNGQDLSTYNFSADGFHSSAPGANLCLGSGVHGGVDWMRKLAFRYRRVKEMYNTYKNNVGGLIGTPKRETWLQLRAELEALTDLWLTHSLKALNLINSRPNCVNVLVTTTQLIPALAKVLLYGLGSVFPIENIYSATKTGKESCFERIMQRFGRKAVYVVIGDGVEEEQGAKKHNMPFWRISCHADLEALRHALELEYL
Target sequence (Q15475 whole entry, looked up): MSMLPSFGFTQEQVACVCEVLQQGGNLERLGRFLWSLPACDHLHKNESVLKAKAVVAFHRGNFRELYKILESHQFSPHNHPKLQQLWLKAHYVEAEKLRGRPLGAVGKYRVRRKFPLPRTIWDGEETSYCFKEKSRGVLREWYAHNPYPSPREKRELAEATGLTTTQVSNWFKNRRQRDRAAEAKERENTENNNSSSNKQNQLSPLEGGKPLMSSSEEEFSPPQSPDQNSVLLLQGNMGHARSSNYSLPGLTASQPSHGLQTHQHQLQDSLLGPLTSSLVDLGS
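AlphaScreen with GST-Six1 and His-Eya2 (5X mix: 250 nM and 500 nM), glutathione donor and nickel acceptor beads; buffer 50 mM Tris pH 8.0, 300 mM NaCl, 1 mM TCEP; 1 h at 37 C in the dark.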
The depositor's hits bear a star; ? = inconclusive; . = not tested or not shown; [ ] = dose if it differs, or a comment. An unsorted share of the library; any-hit rate near 3.7%.

SMILES	PINK1 expr mod	D2 ag	TRPV1 potentiator	CtBP-E1A blk	D2 PAM	Sfp PPTase inh	Six1-Eya2 inh
Cc1cc(C)cc(C(=O)OCC(=O)NCc2cccs2)c1	1.4%	-1.1	-26	-7	-4	-12%	1
CC1(C(=O)NCc2ccccc2Br)CCN1Cc1ccccc1OC(F)F (stereo not given)	7.6%	-5.3	.	-21	-14	.	12
Cc1oc(-c2cccc(Cl)c2)nc1CS(=O)(=O)CC(=O)NC1CCCC1	2.0%	-8.0	-7	7	-5	-1%	0
O=C(c1cccc(NS(=O)(=O)c2cccc([N+](=O)[O-])c2)c1)N1CCOCC1	3.6%	-1.4	4	0	3	26%	4
O=c1cc(-c2ccc([N+](=O)[O-])cc2)nc2cc(-c3ccc(F)cc3)[nH]n12	0.3%	-1.5	5	1	-6	45µM*	-14
COc1ccc(CNC(=O)C2(CC3CC(c4ccccc4)=NO3)CCN(C(=O)C3CCCC3)CC2)cc1 (stereo not given)	2.4%	0.1	?	2	-5	-15%	-1
CCOC(=O)C1=C(CC)NC2=C(C(=O)CCC2)C1c1ccc(OC)c(OC)c1 (stereo not given)	-1.2%	-2.1	-4	7	-2	13%	2
CCOc1ccccc1N(C(=O)c1ccccc1Cl)C1=NC(C)(C)CS1	1.4%	-2.5	-9	6	-3	8%	8
CC(=O)c1ccc(OC(=O)CN2C(=O)c3ccccc3C2=O)cc1	-0.2%	-3.9	8	.	-7	4%	-2
Cn1nc(C(=O)N2CCc3ccccc3C2)c2ccccc2c1=O	6.2%	-5.0	4	?	-19	10%	-30
COc1ccc(NC(=O)CCS(=O)(=O)c2ccc(Cl)cc2)cc1	0.1%	9.1	-12	-5	-13	8%	1
COc1ccc(-c2sc3ccc(N4CCOCC4)cc3c2C#CCO)cc1	1.6%	-3.3	.	-8	-18	.	-14
Cc1ccc(CN2CCSc3ccc(C(=O)NCCCN4CCN(C)CC4)cc32)cc1	-0.3%	-2.5	4	-25	-21	-1%	-19
O=C(NCC1CCCO1)c1ccc(N2C(=O)C3CCCCC3C2=O)cc1 (stereo not given)	4.2%	2.7	6	9	1	9%	5
CCOC(=O)CSc1nc2c(sc(=S)n2-c2ccccc2OC)c(=O)n1Cc1ccco1	23%[38.3 µM]	-4.3	2	-10	-13	-2%	-24
CCOc1nc(CC(C)C)c2c(c1C#N)CC(C)(C)OC2	14%	-1.3	24	11	0	6%	19
CCCCC[C@H]1CN(CCCC)C(=O)[C@@H]1CC(=O)NCc1ccc(OC)cc1	1.6%	-9.0	-12	2	-7	13%	-3
O=C(NCc1ccncc1)C1CCN(C(=O)c2cccc(Cl)c2)CC1	-2.1%	3.9	14	7	-5	11%	-1
CC1=C(C(=O)Nc2nc3ccccc3s2)C(c2ccco2)C(C#N)=C(SCC(=O)NC2CCCCC2)N1 (stereo not given)	5.3%	-1.6	9	15	-11	36%[activator]	2
O=C(c1ccc2c(c1)OCO2)N1CCCN(C(=O)c2ccc3c(c2)OCO3)CC1	1.6%	-1.3	5	1	0	28%	3
COc1ccc(NS(=O)(=O)c2cccc(C(=O)N3CCOCC3)c2)cc1	-1.5%	0.4	.	-4	-18	.	9
CN(C)c1ccc(C(=O)N2CCN(C(=O)C3CCCO3)CC2)cc1 (stereo not given)	1.7%	-0.6	.	-1	0	.	-2
Cn1cc(S(=O)(=O)N2CCN(c3ccccc3F)CC2)c(=O)n(C)c1=O	1.3%	-3.5	-20	-4	-9	5%	-3
O=C(COc1ccc2c3c(c(=O)oc2c1)CCC3)NC1CCN(Cc2ccccc2)CC1	-1.8%	1.1	2	0	-4	14%	0
O=[N+]([O-])c1ccccc1C1Nc2cccc3cccc(c23)N1	4.5%	15	7	2	30	8.9µM*	-25
O=C(CN(c1ccccc1)S(=O)(=O)c1ccccc1)N/N=C/c1ccco1	6.7%	-2.6	0	-1	14	11%	-10
CCC1=NN2C(=N)/C(=C\c3cccn3-c3cccc(Cl)c3)C(=O)N=C2S1	11%	-3.1	-7	-2	1	-13%	-12
O=C(Nc1cnn(C23CC4CC(CC(C4)C2)C3)c1)c1cc(-c2ccccc2)on1	10%[38.3 µM]	0.1	-16	10	-6	1%	1
COc1cccc(CNc2nc3cc(-c4ccc(F)cc4)sc3c(=O)n2C)c1OC	4.9%	-2.8	.	0	-11	.	2
COCCNC(=O)C(c1ccc(F)cc1)N(CC1CCCO1)C(=O)CCC(=O)Nc1ccccn1 (stereo not given)	0.3%	-3.5	3	3	12	11%	1

Another view of part of the listing above:
> Cn1nc(C(=O)N2CCc3ccccc3C2)c2ccccc2c1=O
  PINK1 expr mod = 6.2%; D2 ag = -5.0; TRPV1 potentiator = 4; CtBP-E1A blk = ?; D2 PAM = -19; Sfp PPTase inh = 10%; Six1-Eya2 inh = -30

> CCOc1ccccc1N(C(=O)c1ccccc1Cl)C1=NC(C)(C)CS1
  PINK1 expr mod = 1.4%; D2 ag = -2.5; TRPV1 potentiator = -9; CtBP-E1A blk = 6; D2 PAM = -3; Sfp PPTase inh = 8%; Six1-Eya2 inh = 8

> CCOC(=O)C1=C(CC)NC2=C(C(=O)CCC2)C1c1ccc(OC)c(OC)c1 (stereo not given)
  PINK1 expr mod = -1.2%; D2 ag = -2.1; TRPV1 potentiator = -4; CtBP-E1A blk = 7; D2 PAM = -2; Sfp PPTase inh = 13%; Six1-Eya2 inh = 2

Next entries follow:
SMILES	PINK1 expr mod	D2 ag	TRPV1 potentiator	CtBP-E1A blk	D2 PAM	Sfp PPTase inh	Six1-Eya2 inh
O=S(=O)(c1ccc(Cl)cc1)N1CCC(O)(c2cccnc2)CC1	.	1.4	1	3	-28	1%	6
COC(=O)c1c(NC(=O)COC(=O)CCNS(=O)(=O)c2ccc(NC(C)=O)cc2)sc(C)c1C	0.3%	-3.2	-3	-2	1	.	-9
O=C(N1CCCC1)N1CCN(S(=O)(=O)c2ccccc2)CC1	0.9%	-3.6	3	5	-4	18%	10
COc1ccc(C2CC(=O)c3sc(N)nc3C2)cc1 (stereo not given)	-1.8%	-2.5	-4	-1	-12	?	-2
CC1CCc2[nH]c3ccc(C(=O)O)cc3c2C1 (stereo not given)	-0.7%	2.3	2	2	-1	6%	-1
COCC1CCN(C(=O)CCc2nnc(C3(c4ccc(Cl)cc4)CCC3)o2)CC1	-2.5%	0.5	-20	-1	-23	2%	8
CCc1ccc2[nH]c(=O)c(CN(CCN(C)C)C(=S)NCc3ccco3)cc2c1	-0.4%	-0.6	-22	-10	-18	-15%	-5
CC(C)(C)OC(=O)N1Cc2[nH]c3ccccc3c2C[C@@H]1C(=O)O	0.5%	4.1	-2	0	-1	.	0
COc1ccc([C@H]2CC(=O)C=C(c3cc(F)ccc3OC)C2)cc1	4.2%	-1.2	-12	6	-3	.	3
O=C(NCc1ccco1)C1Cc2ccccc2CN1C(=O)c1ccco1 (stereo not given)	-1.6%	-4.8	4	0	0	14%	12

Gathered by group, those above containing a thiophene ring, fused or not (4)
SMILES	PINK1 expr mod	D2 ag	TRPV1 potentiator	CtBP-E1A blk	D2 PAM	Sfp PPTase inh	Six1-Eya2 inh
Cc1cc(C)cc(C(=O)OCC(=O)NCc2cccs2)c1	1.4%	-1.1	-26	-7	-4	-12%	1
COc1ccc(-c2sc3ccc(N4CCOCC4)cc3c2C#CCO)cc1	1.6%	-3.3	.	-8	-18	.	-14
COc1cccc(CNc2nc3cc(-c4ccc(F)cc4)sc3c(=O)n2C)c1OC	4.9%	-2.8	.	0	-11	.	2
COC(=O)c1c(NC(=O)COC(=O)CCNS(=O)(=O)c2ccc(NC(C)=O)cc2)sc(C)c1C	0.3%	-3.2	-3	-2	1	.	-9

The list continues.
SMILES	PINK1 expr mod	D2 ag	TRPV1 potentiator	CtBP-E1A blk	D2 PAM	Sfp PPTase inh	Six1-Eya2 inh
C=CCn1c(COc2ccccc2)nnc1SCC(=O)C(C)(C)C	1.0%	-1.9	-32	-3	-20	-24%	-1
CCCCCC(=O)Nc1ccc2oc(-c3cncc(Br)c3)nc2c1	6.4%[38.3 µM]	0.4	3	-10	-9	10%	0
O=[N+]([O-])c1nn(-c2ccc3c(c2)OCCO3)n(O)c1=NC1CCCCC1	-0.9%	?	25	?	118*	1%	?
CC1=C(C(=O)Nc2ccc(C(=O)NCCCN3CCCCC3C)cc2)SCCO1 (stereo not given)	-0.4%	-4.5	.	0	-11	.	2
COc1ccc(/C=N/NC(=O)c2cccc([N+](=O)[O-])c2)cc1OC(=O)c1ccc(C)cc1	0.9%	2.1	7	-24	0	20%	-14
Clc1ccc(-c2nnc3sc(Cc4cccs4)nn23)cc1	0.1%	-1.8	12	-8	11	-26%	-2
NC(N)=N/N=C/c1ccc(OS(=O)(=O)c2ccccc2)cc1	-1.0%	6.8	-13	.	-12	5%	6
Cc1ccc(CN2CCN(Cc3nc4ccccc4nc3C)CC2CCO)cc1 (stereo not given)	1.2%	-0.9	-11	1	-22	-8%	6
O=C(O)CCCN1C(=O)c2ccc(C(=O)c3cccc([N+](=O)[O-])c3)cc2C1=O	3.1%	0.8	1	-22	8	-9%	3
Cc1ccc(NC(=O)CSc2nnnn2C)cc1S(=O)(=O)N1CCCCC1	1.0%	-1.4	.	-18	-14	.	6
CCOc1ccc(Cl)cc1S(=O)(=O)N1CCN(c2ccc(C)c(C)c2)CC1	-0.8%	-1.0	4	0	-6	20%	-11
